CtBP-E1A inh: CtBP/E1A binding inhibition. activity change, % (no concentration beside the values). AID 651724. AlphaScreen GST-E1A/His-CtBP binding, 1536-well; stronger effect = lower value; control for the full effect not named in the record. 340,000 compounds, 0.49% hits; in the data active means activity change below about -65%; inconclusive means about -30% to -65%; inactive means above about -30%; further: on the % scale 0 is the no-effect control and ±100 the full control effect
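AlphaScreen with 125 nM GST-E1A and 125 nM His-CtBP (5X stocks) in Tris pH 8.0, 300 mM NaCl, BSA, Tween 20, TCEP. Compounds preincubated 2 h at 37 deg C, then glutathione donor/nickel acceptor beads added for 1 h at 37 deg C in dark.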
PINK1 modulator: PINK1 expression modulation | PINK1 immunofluorescence, high-content cytometry, 24 h | Potency, µM (titrated, usually from 76.6 µM), without a hit: at the top dose activation (PINK1 increase), hits mostly activators | 410,000 compounds, 0.2% hits | AID 624263; active = well fitted activation curve with a large enough effect; inconclusive = small, poorly fitted or top-dose-only effect; inactive = flat fitted curve, though single readings scatter; cell line not stated here;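 further: potency means the concentration at half of the fitted maximal effect; % of control where 0% means no effect; nearly all actives have a fitted effect of over 65% in size; a mitochondrial uncoupler was the plate control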
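Decision-based qHTS: stable cells, 24 h exposure to five compound concentrations, CCCP as control. Fixed cells stained for PINK1 plus nuclear, mitochondrial and cell markers, cytometer read.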
TRPML1 ag: activates the human TRPML1 channel. Q9GZU1. 410,000 compounds, 0.12% hits. AID 624414. activation, % (test concentration not listed). TRPML1-expressing cells, Ca2+ dye fluorescence, FDSS; host cell line not named in the record; reference of the full effect not given here; in the data active = activation above about 50%; inconclusive = about 30% to 50%; inactive = below about 30%; further: 0% is about no effect; the text of the record puts the active cut at 80%
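In this qHTS format, compounds were pin-transferred onto Ca8-dye-loaded TRPML1-DL cells induced with Tet overnight, and intracellular Ca2+ fluorescence was recorded kinetically for 110 s after a 10 s baseline. A subsequent 4uM final 54-4 (EC80) addition followed by a second 110 s read served as the antagonist phase.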
Six1-Eya2 inh: inhibitors of human Six1/Eya2 interaction | Q15475+O00167 | AlphaScreen GST-Six1/His-Eya2 binding, biochemical; stronger effect = lower value; control for the full effect not named in the record | activity change, % (test concentration not listed) | 360,000 compounds, 0.56% hits | AID 651725; in the data active = activity change below about -65%; inconclusive = about -30% to -65%; inactive = above about -30%; further: on the % scale 0 is the no-effect control and ±100 the full control effect
Target sequence (O00167 whole entry, looked up): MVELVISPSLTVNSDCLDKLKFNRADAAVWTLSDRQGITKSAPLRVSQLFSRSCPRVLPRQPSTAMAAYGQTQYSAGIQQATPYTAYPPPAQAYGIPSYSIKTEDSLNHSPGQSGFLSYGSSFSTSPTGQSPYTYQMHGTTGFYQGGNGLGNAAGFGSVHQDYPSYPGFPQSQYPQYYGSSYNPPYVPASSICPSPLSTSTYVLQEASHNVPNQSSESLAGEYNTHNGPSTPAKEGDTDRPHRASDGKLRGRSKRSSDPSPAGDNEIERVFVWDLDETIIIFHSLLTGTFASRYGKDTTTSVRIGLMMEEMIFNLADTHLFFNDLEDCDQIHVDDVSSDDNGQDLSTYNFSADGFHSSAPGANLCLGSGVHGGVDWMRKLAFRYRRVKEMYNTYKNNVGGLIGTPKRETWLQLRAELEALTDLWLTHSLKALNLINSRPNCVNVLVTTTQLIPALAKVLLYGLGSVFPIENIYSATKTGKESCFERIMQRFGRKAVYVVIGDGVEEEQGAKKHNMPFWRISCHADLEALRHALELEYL
Target sequence (Q15475 whole entry, looked up): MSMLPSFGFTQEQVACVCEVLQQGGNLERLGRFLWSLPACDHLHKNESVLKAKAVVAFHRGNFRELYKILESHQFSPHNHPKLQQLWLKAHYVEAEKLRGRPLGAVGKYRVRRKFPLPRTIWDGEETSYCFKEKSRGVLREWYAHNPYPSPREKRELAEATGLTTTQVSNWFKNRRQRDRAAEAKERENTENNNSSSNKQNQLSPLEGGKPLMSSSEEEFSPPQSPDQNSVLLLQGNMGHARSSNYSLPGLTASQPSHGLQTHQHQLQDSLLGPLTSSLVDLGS
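Six1/Eya2 binding was read as AlphaScreen signal after compounds were pinned into GST-Six1 plus His-tagged Eya2 (5X stock 250/500 nM) in pH 8.0 Tris/NaCl/TCEP buffer, beads added, then incubated 1 h, 37 C, dark.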
TRPML1 inh: blocks the human TRPML1 channel | 390,000 compounds, 0.02% hits | activity change, negative = inhibition, % (test concentration not listed) | Q9GZU1 | TRPML1-inducible cells, Ca2+ dye fluorescence, FDSS; stronger effect = lower value; inhibition of EC80 agonist-evoked calcium signal; in the data active means activity change below about -50%; inconclusive means about -30% to -50%; inactive means above about -30%;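 further: stimulus is agonist 54-4 at its EC80 concentration; on the % scale 0 is the no-effect control and ±100 the full control effect; compound concentration not given in the record; the text of the record puts the active cut at -80%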
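TRPML1-DL cells, Tet-induced overnight (~16 h, 37 °C) at 1,500 cells/well, were loaded with Ca8 no-wash dye plus quencher for 45-90 min at room temperature. Compounds were pinned during FDSS kinetic reading; agonist 54-4 at EC80 (4 uM final) then added.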
D2 ag: activates the human D2 dopamine receptor; 360,000 compounds, 0.084% hits; activation, % (concentration not given with the values); DiscoveRx PathHunter D2 beta-arrestin, luminescence, 90 min; 100% = 57 uM dopamine signal; P14416; AID 624465; in the data active = activation above about 40%; inconclusive = about 15% to 40%; inactive = below about 15%; further: the text of the record calls up to 30% inactive
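Agonist mode: compounds alone added to overnight-plated D2 PathHunter cells for 90 min at 37 C, with 57 uM final dopamine (EC100) defining full response. Beta-arrestin recruitment detected by chemiluminescent reagent, read after 1 h at ambient temperature.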
The depositor's hits bear a star; ? = inconclusive; nt = not tested or not shown; & = joins results of further samples; [ ] = remark or other dose. An unsorted share of the library, and some 1% of all compounds hit somewhere here.

SMILES | CtBP-E1A inh | PINK1 modulator | TRPML1 ag | Six1-Eya2 inh | TRPML1 inh | D2 ag
CC(C)(C)OC(=O)NCCCCCNC(=O)c1nc[nH]c1C(=O)NCc1ccccc1 | 5 | -0.7% | 0.3 | -1 | 23 | 2.8
CCn1cc(C(=O)NC(=S)Nc2cccc(O)c2)cn1 | -12 | 1.3% | -0.4 | -17 | 4 | -3.2
COc1ccccc1OCC(O)CO (stereo unspecified) | 3 | -0.1% | 0.0 | 0 | -2 | 1.9
Cc1nc(NC(=O)c2ccccc2)sc1-c1cc(C(=O)O)nn1Cc1ccccc1 | -1 | 6.5% | nt | -3 | nt | -0.6
Cc1cccc(N/C(=N/S(=O)(=O)c2ccccc2)c2ccccc2)n1 | 1 | -1.0% | 0.2 | 2 | 13 | 7.9
C=C(C)C(=O)Nc1nnc(-c2cccs2)s1 | 20 | -0.4% | 0.9 | 0 | 13 | 4.1
COC(=O)CN(C#N)c1nc(NC(C)C)nc(OC)n1 | -10 | 1.6%[38.3 µM] | 0.1 | 1 | -1 | -0.6
Cc1cc(C(=O)N/N=C/c2ccccc2[N+](=O)[O-])c(C)o1 | -8 | 1.1% | 1.7 | -6 | 65 | -1.0
CCOc1ccc(-c2nn(-c3ccccc3)cc2/C=C(\C#N)S(=O)(=O)c2ccccc2)cc1C | 14 | 2.3% | 1.4 | 11 | -7 | 0.2
Cc1cc(Cl)ccc1NC(=O)C1CCN(S(C)(=O)=O)CC1 | 5 | 0.2% | -0.6 | -4 | 23 | 2.6
COc1cc(/C=C2/C(=O)N(c3ccc(C)c(C)c3)N=C2C)cc([N+](=O)[O-])c1O | 14 | 0.2% | 0.2 | -3 | -10 | -8.7
Cc1ccc(OCC(=O)N/N=C/c2ccc([N+](=O)[O-])o2)cc1 | -26 | ? | 1.2 | -6 | -1 | 1.6
COc1ccc(S(=O)(=O)Nc2noc3ccccc23)cc1OC | 1 | 0.8% | 0.5 | 18 | 4 | -2.1
CCN(CC)Cc1c(C(=O)N/N=C/c2cccc(OCc3ccc(F)cc3)c2)nnn1-c1nonc1N | 0 | 3.3% | 0.9 | -1 | -11 | -13
CCN1CCN(c2ccc(S(=O)(=O)N3CCCCC3)cc2NC(=O)/C=C/c2cc(OC)ccc2OC)CC1 | -25 | 0.5% | -0.3 | -21 | 2 | -0.8
CCOC(=O)c1nnn(CC(=O)Nc2ccccc2OC)c1C(=O)OCC | 3 | -0.1% | -1.1 | -2 | -14 | -1.6
CCc1ccccc1NC(=O)c1ccc(CN2C(=O)CCn3nc(C)cc32)cc1 | nt | 1.6% | 0.9 | nt | -7 | nt
Cc1ccc(NC(=O)c2cc(S(=O)(=O)N3CCCc4ccccc43)ccc2F)cc1F | nt | -0.1% | 5.0 | nt | 62 | nt
CCCCN(C(=O)COC(=O)c1nc2nccc(C)n2n1)C1CCS(=O)(=O)C1 (stereo unspecified) | 7 | -0.3% | 0.8 | 2 | 5 | -1.0
CCOC(=O)N1CCN(C(=O)C(CC(C)C)NS(=O)(=O)c2ccc(C)cc2)CC1 (stereo unspecified) | 1 | 2.1% | 0.2 | 8 | -2 | -2.4
Cc1nn(C)cc1S(=O)(=O)Nc1ccccc1Br | -4 | 3.0% | -0.2 | -9 | 7 | 0.0
O=C(CN1C(=O)C2CC=CCC2C1=O)NC1CCCCC1 (stereo unspecified) | -2 | -1.1% | 0.8 | 6 | 23 | -2.1
COc1cccc(NC(=O)C(=O)NCC(c2ccc3c(c2)OCO3)N2CCOCC2)c1 (stereo unspecified) | nt | 0.4% | 0.9 | nt | -4 | nt
COc1ccc(Cn2cc(CN3CC(N4CCN(CCO)CC4)CS3(=O)=O)nn2)cc1 (stereo unspecified) | -4 | -0.2% | 0.3 | 9 | nt | nt
O=C(NCc1ccccc1)c1ccc(NC(=O)c2ccco2)cc1 | 3 | 13% | -0.9 | 0 | -18 | 1.6

The list goes on.
SMILES | CtBP-E1A inh | PINK1 modulator | TRPML1 ag | Six1-Eya2 inh | TRPML1 inh | D2 ag
CCOc1ccc(CC(=O)NCC2(N3CCCCC3)CCCCC2)cc1 | 0 | -0.8% | 0.0 | 4 | -4 | -4.2
Cc1ccc(NS(=O)(=O)c2cc(-c3n[nH]c(=O)c4ccccc34)ccc2C)cc1 | -15 | 14% | 4.0 | -26 | -9 | 3.8
Cc1cccc(NC(=O)NC2(C(=O)NCc3ccco3)CCCCC2)c1 | -1 | 4.1% | -0.5 | -6 | 15 | -1.4
CC1=CC(C)(C)NC(=S)N1CCO | -1 | -2.2% | 0.7 | 3 | 1 | -2.7
O=S(=O)(Nc1nc2ccccc2s1)c1ccc(Br)s1 | 2 | 4.4%[38.3 µM] | -0.3 | 6 | 20 | -1.0
COC(=O)C1=C(C(=O)OC)[C@@H]2Nc3ccccc3[C@@]23C[C@@H](C(=O)OC)N(C(C)=O)C3=N1 | 3 | -0.3% | 3.4 | -1 | -7 | -2.1
Cc1sc2nc(CN3CCOCC3)nc(NS(=O)(=O)c3ccc4c(c3)OCCO4)c2c1C | 2 | -4.6% | -0.8 | -6 | 18 | -1.5
Cc1cc(OCCn2cncn2)ccc1[N+](=O)[O-] | -12 | -0.2% | 0.3 | 6 | -12 | -0.8
CC(C)CNC(=O)CSc1n[nH]c(=O)n1CCc1ccccc1 | 6 | 3.5% | -0.3 | 2 | -1 | -3.0
Cc1ccccc1Cn1c(C)cc(C)c(C#N)c1=O | 7 | 0.4% | -0.3 | 8 | 11 | 0.7
Cc1ccc(NC(=O)n2ncc3c(C)cccc32)c(C)c1 | -17 | 3.7%&-1.1% | -0.5&-0.9 | 14 | -2&-2 | -6.2
COC(=O)C(Cc1ccccc1)OS(N)(=O)=O (stereo unspecified) | -19 | 0.0% | -0.2 | 3 | -10 | -5.1
Cc1ccc2nc(-c3ccc(NC(=O)CN4C(=O)NC(C)(c5ccc(OC(F)F)cc5)C4=O)cc3)sc2c1 (stereo unspecified) | -8 | 4.0% | 0.3 | -5 | -13 | 1.7
CCc1nnc(NC(=O)CSc2nnc(CNC(=O)c3ccc(OC)c(OC)c3)o2)s1 | nt | -3.0% | 0.8 | -20 | 10 | 5.1
COc1ccc(OC)c(C(O)c2ncc(-c3ccccc3Cl)[nH]2)c1 (stereo unspecified) | 1 | 0.3% | 0.5 | -7 | 11 | -3.3
CC(=O)Nc1cccc(OCC(=O)NC(C)c2ccc3ccccc3c2)c1 (stereo unspecified) | 3 | -0.3% | -0.1 | 2 | -4 | 6.9
CC(C)Oc1ccc(C(=O)/C(=C\c2cccs2)c2nc3ccccc3o2)cc1 | -8 | 7.1% | 1.4 | -17 | 17 | -4.9
CCCn1nnnc1SCC(=O)N1C(C)CCCC1C (stereo unspecified) | 2 | 2.1% | 0.0 | 5 | -7 | -5.1
O=C(CSc1nnnn1C1CCCCC1)N1CCOCC1 | 13 | -1.7% | 3.9 | 3 | -11 | -5.6
c1ccc(Cn2nnc3c(N4CCCC4)ncnc32)cc1 | -12 | -4.5%[38.3 µM] | 0.1 | -3 | -6 | -4.6
Cc1onc(NC(=O)NC(=O)c2c(F)cccc2Cl)c1Br | -13 | -0.6% | 0.7 | 19 | -15 | 2.8
Cc1ccc(C)c(NS(=O)(=O)c2cc(C(=O)Nc3cccc(N(C)S(C)(=O)=O)c3)ccc2C)c1 | -9 | 7.8%[38.3 µM] | 2.1 | 5 | 21 | 2.4
Cc1cc(-c2nnc3n2N=C(c2ccccc2)CS3)n[nH]1 | ? | -1.2% | -0.1 | ? | -1 | -2.1
Cc1cc(C)nc(SCC(=O)N/N=C/c2cccs2)n1 | 4 | 2.0% | -1.5 | -3 | 8 | -4.0
Cn1cnnc1Sc1ccc(S(C)(=O)=O)cc1[N+](=O)[O-] | 7 | 0.4% | -0.6 | -7 | 21 | 12

A different layout for some results above:
CCOc1ccc(CC(=O)NCC2(N3CCCCC3)CCCCC2)cc1
  CtBP-E1A inh: 0 | PINK1 modulator: -0.8% | TRPML1 ag: 0.0 | Six1-Eya2 inh: 4 | TRPML1 inh: -4 | D2 ag: -4.2
Cc1ccc(NS(=O)(=O)c2cc(-c3n[nH]c(=O)c4ccccc34)ccc2C)cc1
  CtBP-E1A inh: -15 | PINK1 modulator: 14% | TRPML1 ag: 4.0 | Six1-Eya2 inh: -26 | TRPML1 inh: -9 | D2 ag: 3.8

The list goes on.
SMILES | CtBP-E1A inh | PINK1 modulator | TRPML1 ag | Six1-Eya2 inh | TRPML1 inh | D2 ag
CCCc1nc(NCCO)c(C#N)c2c1CCCC2 | -3 | 2.0% | 2.8 | -5 | 26 | 1.4
CC(=O)c1ccc(N(C(=O)CNC(=O)c2ccco2)C(C(=O)NC2CCCC2)c2cccnc2)cc1 (stereo unspecified) | -12 | 1.1% | -0.1 | 3 | 26 | 1.1
CC(C)C1C(=O)N(Cc2cn(CC3CCCCC3)nn2)CCS(=O)(=O)N1Cc1ccc(-c2ccc(Cl)cc2)cc1 (stereo unspecified) | 0 | -0.8% | 1.3 | -2 | 4 | -2.8
Cc1ccccc1NC(=O)c1ccccc1NC(=O)c1cccs1 | 13 | 5.0% | 0.9 | -5 | 3 | 2.6
CCn1c(=O)cc(SCC(=O)Nc2cccc(C)n2)c2ccccc21 | -8 | 5.6% | 1.4 | 0 | 4 | -1.1
CC(Oc1ccc2c(c1)oc(=O)c1ccccc12)C(=O)NCCCN1CCOCC1 (stereo unspecified) | -1 | -0.6% | -0.3 | -5 | -1 | -1.0
CCOC(=O)C(C)Oc1c(C(=O)OC)sc2ncccc12 (stereo unspecified) | 1 | 0.1% | -1.3 | 3 | 0 | -4.0
O=C(Nc1cccc(Cl)c1)N1CCC(CO)(CCOc2ccccc2)CC1 | nt | 5.3% | 1.3 | -1 | -14 | -0.6
CCc1cccc(NC(=O)c2cccc3c2C(=O)N(C2CCCCC2)C3)c1 | nt | 5.0%&0.3% | 4.2&-0.7 | -1 | -9&-2 | -5.9
CS(=O)(=O)c1ccc(-c2cn3cc(C(=O)O)ccc3n2)cc1 | 7 | 1.5% | -0.3 | 3 | 6 | -1.9
COc1cccc(NC(=O)CSC2=Nc3ccccc3C3=NC(CC(=O)NC4CCCCC4)C(=O)N23)c1 (stereo unspecified) | nt | 0.4% | 0.8 | nt | -3 | nt
C/C(=N/N=C(/C)c1cccs1)c1cccs1 | -20 | 4.1% | 1.6 | 5 | 1 | 0.9

Pulled one by one from above, four records:
SMILES | CtBP-E1A inh | PINK1 modulator | TRPML1 ag | Six1-Eya2 inh | TRPML1 inh | D2 ag
CC(=O)c1ccc(N(C(=O)CNC(=O)c2ccco2)C(C(=O)NC2CCCC2)c2cccnc2)cc1 (stereo unspecified) | -12 | 1.1% | -0.1 | 3 | 26 | 1.1
O=C(Nc1cccc(Cl)c1)N1CCC(CO)(CCOc2ccccc2)CC1 | nt | 5.3% | 1.3 | -1 | -14 | -0.6
CCc1cccc(NC(=O)c2cccc3c2C(=O)N(C2CCCCC2)C3)c1 | nt | 5.0%&0.3% | 4.2&-0.7 | -1 | -9&-2 | -5.9
CC(C)C1C(=O)N(Cc2cn(CC3CCCCC3)nn2)CCS(=O)(=O)N1Cc1ccc(-c2ccc(Cl)cc2)cc1 (stereo unspecified) | 0 | -0.8% | 1.3 | -2 | 4 | -2.8
